Screening results deposited in PubChem BioAssay by several laboratories.
BJeLR viability: BJeLR cell viability loss. BJeLR (HRASV12) viability, CellTiter-Glo ATP luminescence, 48 h; reference of the scale not given here. inhibition, % (test concentration not listed). 0.17% of 300,000 active;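 active means replicate mean above 50%; inconclusive means above 50% but judged a plate artefact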;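 further: 50 nL library stock added to about 25 µL; numbers are from one replicate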
PrP 5UTR inh: suppresses PrP 5' UTR mRNA reporter expression; 0.35% of 340,000 active; inhibition, % (test concentration not listed); cell-based PrP 5' UTR mRNA reporter, plate reader;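 active means every replicate at 50% or more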;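 further: 0 = median of the neutral control wells; tested in H4 reporter cells; numbers are from one replicate; inactives centre near -14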
RN4220 kill: kills Staphylococcus aureus RN4220 | inhibition, % (concentration not given with the values) | 0.33% of 330,000 active | AID 1259311 | S. aureus RN4220 growth, OD600, 16 h;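 active means z-score of -3 or lower and OD600 up to 0.18 on both plates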;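 further: plate controls were untreated cells for no effect and reference antibiotic for full effect; stock transfer was 100 nL into about 80 µL; one replicate is shown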
ugtP null kill: growth inhibition of S. aureus ugtP deletion strain | S. aureus RN4220 ugtP deletion, OD600 growth, 16 h; some inactives read as strong as hits | growth inhibition, % (concentration not given with the values) | 0.54% of 330,000 active;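 active means z-score under -3 and OD600 up to 0.15 on both plates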;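 further: plate controls were untreated wells for no effect and antibiotic for full effect; wells of about 80 µL received 100 nL stock; the first replicate is given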
Mtb hypoxia inh: reduces hypoxia-regulated biosensor signal in M. tuberculosis; M. tuberculosis hypoxia-regulated fluorescent reporter, fluorescence; fluorescence inhibition, % (test concentration not listed); 0.1% of 300,000 active; AID 1159583;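 active means 35 to 45% if threefold the growth effect, above 45% if 1.5-fold the growth effect; inactive means the rest, general growth blockers included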;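 further: wells of about 50 µL received 100 nL stock; 0% = vehicle wells and 100% = reference inhibitor wells; whole bacteria with a GFP reporter of the hypoxia response; strong numbers were not always called active; many hits fall short of the cut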
Autofluor counter: flagged as autofluorescent in microsphere protease counterscreen. compound autofluorescence counterscreen, microsphere flow cytometry; stronger effect = higher value. fluorescence intensity (no concentration beside the values). 3.1% of 360,000 active. AID 624483;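 active means at least 3 SD above the mean of all compounds, about 16000 in these data; inconclusive means too few beads counted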;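 further: 100 nL of 1 mM stock went into each well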
Mtb hypoxia inh growth: recorded beside Mtb hypoxia inh, whose call it bears; growth inhibition, %; measured here: M. tuberculosis growth (absorbance);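 0% = vehicle and 100% = reference antibiotic; read after six days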
* marks the source's active call; other numbers are inactive results. Not a hit list. Share with any hit: about 3.9%.

For O=C(CSc1nc2ccccc2o1)NC1CCCC1 the results were BJeLR viability 2, PrP 5UTR inh -26, RN4220 kill -2.1, ugtP null kill 5, Mtb hypoxia inh 14, Autofluor counter 6179 and Mtb hypoxia inh growth 3.
For Cn1c(O)c(C=Nc2ccc(F)cc2)c(=O)[nH]c1=O the results were BJeLR viability -6, PrP 5UTR inh -28, RN4220 kill 2.6, ugtP null kill 6, Mtb hypoxia inh 7, Autofluor counter 3205 and Mtb hypoxia inh growth 8.
`Cc1ccc(SCC(=O)NC2CCS(=O)(=O)C2)cc1` (stereo not given) gave BJeLR viability 2, PrP 5UTR inh -27, RN4220 kill 3.8, ugtP null kill 8, Mtb hypoxia inh 9, Autofluor counter 2051 and Mtb hypoxia inh growth 6.
`Cc1nn(Cc2ccccc2)c(C)c1C(=O)N1CCN(S(=O)(=O)/C=C/c2ccccc2)CC1` gave RN4220 kill 4.9, ugtP null kill 2, Mtb hypoxia inh 8, Autofluor counter inconclusive and Mtb hypoxia inh growth 9.
CN(C)CC#CCOC(c1ccccc1)c1ccccc1 was read as BJeLR viability 2, PrP 5UTR inh 3, RN4220 kill 6.1, ugtP null kill 16, Mtb hypoxia inh 21, Autofluor counter 3910 and Mtb hypoxia inh growth 11.
CN(C(=S)Nc1ccc(Oc2ccccc2)cc1)C1CCCCC1 was read as BJeLR viability -9, PrP 5UTR inh -12, RN4220 kill 4.0, ugtP null kill -10, Mtb hypoxia inh -14, Autofluor counter 2091 and Mtb hypoxia inh growth -7.
Screening Brc1cccc(-c2n[nH]c(-c3ccccc3)n2)c1 returned BJeLR viability -2, PrP 5UTR inh -74, RN4220 kill -8.1, ugtP null kill -15 and Autofluor counter 2224.
CC(C)Cn1c(CN2CCN(C)C(CCO)C2)nc2ccccc21 (stereo not given) was read as BJeLR viability -1, PrP 5UTR inh -61, RN4220 kill -1.5, ugtP null kill 0, Mtb hypoxia inh 1, Autofluor counter 3819 and Mtb hypoxia inh growth 11.
CCC1CC(C(=O)Nc2ccccc2)C(=O)O1 (stereo not given) was read as BJeLR viability -3, PrP 5UTR inh -15, RN4220 kill 2.5, ugtP null kill 12, Mtb hypoxia inh 18, Autofluor counter 5825 and Mtb hypoxia inh growth 2.
Cc1ccc(S(=O)(=O)c2nc(-c3ccccc3Cl)oc2N2CCN(C)CC2)cc1 was read as PrP 5UTR inh -10, RN4220 kill 2.6, ugtP null kill 14, Mtb hypoxia inh 3, Autofluor counter 3065 and Mtb hypoxia inh growth 11.

Not a retest: entries from further up.
CN(C)CC#CCOC(c1ccccc1)c1ccccc1 was read as BJeLR viability 2, PrP 5UTR inh 3, RN4220 kill 6.1, ugtP null kill 16, Mtb hypoxia inh 21, Autofluor counter 3910 and Mtb hypoxia inh growth 11.
CN(C(=S)Nc1ccc(Oc2ccccc2)cc1)C1CCCCC1 was read as BJeLR viability -9, PrP 5UTR inh -12, RN4220 kill 4.0, ugtP null kill -10, Mtb hypoxia inh -14, Autofluor counter 2091 and Mtb hypoxia inh growth -7.
Screening Brc1cccc(-c2n[nH]c(-c3ccccc3)n2)c1 returned BJeLR viability -2, PrP 5UTR inh -74, RN4220 kill -8.1, ugtP null kill -15 and Autofluor counter 2224.
CC(C)Cn1c(CN2CCN(C)C(CCO)C2)nc2ccccc21 (stereo not given) was read as BJeLR viability -1, PrP 5UTR inh -61, RN4220 kill -1.5, ugtP null kill 0, Mtb hypoxia inh 1, Autofluor counter 3819 and Mtb hypoxia inh growth 11.
CCC1CC(C(=O)Nc2ccccc2)C(=O)O1 (stereo not given) was read as BJeLR viability -3, PrP 5UTR inh -15, RN4220 kill 2.5, ugtP null kill 12, Mtb hypoxia inh 18, Autofluor counter 5825 and Mtb hypoxia inh growth 2.
Cc1ccc(S(=O)(=O)c2nc(-c3ccccc3Cl)oc2N2CCN(C)CC2)cc1 was read as PrP 5UTR inh -10, RN4220 kill 2.6, ugtP null kill 14, Mtb hypoxia inh 3, Autofluor counter 3065 and Mtb hypoxia inh growth 11.

Later entries
COc1ccc(N2CCN(Cc3cc(=O)oc4ccc(C)cc34)CC2)cc1 was read as BJeLR viability 19, PrP 5UTR inh -23, RN4220 kill 10, ugtP null kill -2, Mtb hypoxia inh -2, Autofluor counter 10998 and Mtb hypoxia inh growth 10.
Screening C=CCN(C(=O)Nc1ccc2oc(C)nc2c1)c1ccccc1 returned BJeLR viability 8, PrP 5UTR inh -5, RN4220 kill 1.9, ugtP null kill -1 and Autofluor counter 3271.
For COC(=O)CSC1=C(C#N)C(c2ccc(Cl)cc2)C(C(=O)OC)C(=O)N1 (stereo not given) the results were BJeLR viability -10, PrP 5UTR inh -4, RN4220 kill -2.0, ugtP null kill 7 and Autofluor counter 5086.
Screening CCN1CCCC1CNC(=O)CCc1nnc(CCC2CCCCC2)o1 (stereo not given) returned BJeLR viability 1, PrP 5UTR inh -32, RN4220 kill -1.2, ugtP null kill 7, Mtb hypoxia inh 1, Autofluor counter 6911 and Mtb hypoxia inh growth 3.
CN(C)CCCN(C(=O)c1ccc(N2C(=O)CCC2=O)cc1)c1nc2c(F)cccc2s1 was read as BJeLR viability 6, PrP 5UTR inh -5, RN4220 kill -0.4, ugtP null kill 3, Mtb hypoxia inh 0, Autofluor counter 3394 and Mtb hypoxia inh growth -7.
`CCOC(=O)C1CCN(C(=O)c2cc(S(=O)(=O)N3CCCCC3)ccc2C)CC1` gave BJeLR viability 2, PrP 5UTR inh 2, RN4220 kill 3.0, ugtP null kill 3, Mtb hypoxia inh -1, Autofluor counter 6577 and Mtb hypoxia inh growth 3.
Screening CC[C@]12c3[nH]c4cc(CCC(=O)N(C)C)ccc4c3CCN1C(=O)[C@@H](CC(=O)NCCCn1ccnc1)C[C@@H]2C(=O)N1CCN(C(=O)C2CC2)CC1 returned PrP 5UTR inh 0, RN4220 kill 6.0, ugtP null kill 13, Mtb hypoxia inh -1, Autofluor counter 3904 and Mtb hypoxia inh growth 3.
Cc1ccc(C(=O)NNC(=O)CSc2nc(N)cc(N)n2)cc1 was read as BJeLR viability -8, PrP 5UTR inh -20, RN4220 kill 4.4, ugtP null kill 2, Mtb hypoxia inh 9, Autofluor counter 2447 and Mtb hypoxia inh growth 5.
`CCN1CCN(C(=O)/C=C/c2ccc3c(c2)OCO3)CC1` gave BJeLR viability -13, PrP 5UTR inh -22, RN4220 kill -0.2, ugtP null kill 3, Mtb hypoxia inh -7, Autofluor counter 4913 and Mtb hypoxia inh growth -8.
For CCOc1ccc(N(CC(=O)NCC2CCCO2)S(=O)(=O)c2ccc(C)cc2)cc1 (stereo not given) the results were BJeLR viability 6, PrP 5UTR inh -27, RN4220 kill 2.7, ugtP null kill 4, Mtb hypoxia inh 4, Autofluor counter 5631 and Mtb hypoxia inh growth 6.
Screening COc1ccc(NS(=O)(=O)c2cc(NC(=O)c3cc(F)c(F)cc3Cl)ccc2N2CCOCC2)cc1 returned PrP 5UTR inh 6, RN4220 kill 2.6, ugtP null kill 13, Mtb hypoxia inh -15, Autofluor counter 2682 and Mtb hypoxia inh growth -8.
For O=C(Nc1cccc2ccccc12)c1ccc(F)cc1 the results were BJeLR viability -9, PrP 5UTR inh -42, RN4220 kill 9.3, ugtP null kill 5, Mtb hypoxia inh 9, Autofluor counter 5838 and Mtb hypoxia inh growth 4.
For COc1ccc(-c2c(-c3ccsc3)oc(=O)c3cc(OC)c(OC)cc23)cn1 the results were PrP 5UTR inh -15, RN4220 kill 4.2, ugtP null kill -14, Mtb hypoxia inh 1, Autofluor counter 3511 and Mtb hypoxia inh growth 9.
Screening COc1cc(C(=O)c2ccccc2)c(OC)cc1C(=O)Nc1ccc(O)cc1 returned BJeLR viability 0, PrP 5UTR inh -2, RN4220 kill 2.3, ugtP null kill 3, Mtb hypoxia inh 10, Autofluor counter 2480 and Mtb hypoxia inh growth 1.
`Cc1nonc1-c1nc(-c2nonc2N)n[nH]1` gave BJeLR viability -4, PrP 5UTR inh -20, RN4220 kill 8.0, ugtP null kill -1, Mtb hypoxia inh 9, Autofluor counter inconclusive and Mtb hypoxia inh growth 8.
Screening O=C(c1cc(-c2ccc(F)cc2)no1)N1CCN(Cc2ccc3c(c2)OCO3)CC1 returned BJeLR viability -1, PrP 5UTR inh -19, RN4220 kill 0.9, ugtP null kill 6 and Autofluor counter 5614.
`Cc1cccc(N2CCN(CC(=O)N(C)Cc3ccccc3)CC2C)c1` (stereo not given) gave BJeLR viability -7, PrP 5UTR inh -7, RN4220 kill 1.5, ugtP null kill 0, Mtb hypoxia inh -1, Autofluor counter 2990 and Mtb hypoxia inh growth 2.
CCCCNC1c2ccccc2C(=O)N1Cc1ccccc1 (stereo not given) was read as BJeLR viability 4, PrP 5UTR inh -29, RN4220 kill 1.3, ugtP null kill 2, Mtb hypoxia inh 2, Autofluor counter 3399 and Mtb hypoxia inh growth 2.
For S=c1[nH]c2cc(Br)cnc2[nH]1 the results were BJeLR viability 4, PrP 5UTR inh -20, RN4220 kill 5.8, ugtP null kill 11, Mtb hypoxia inh 17, Autofluor counter 5253 and Mtb hypoxia inh growth 3.
`Cc1ccc2nc(CSc3nnc(-c4ccncc4)n3C)cc(=O)n2c1` gave BJeLR viability 10, PrP 5UTR inh -20, RN4220 kill 16, ugtP null kill -62, Mtb hypoxia inh 10, Autofluor counter 4092 and Mtb hypoxia inh growth 1.
Screening CC(C)(C)N1CC(COc2ccccc2)OC1=O (stereo not given) returned BJeLR viability -6, PrP 5UTR inh -31, RN4220 kill 4.7, ugtP null kill 2, Mtb hypoxia inh 8, Autofluor counter 14873 and Mtb hypoxia inh growth 14.
Screening Cc1ccc(/C=N/Nc2ncnc3nc[nH]c23)cc1 returned BJeLR viability 3, PrP 5UTR inh -45 and Autofluor counter 3523.
`CC(c1ccccc1)n1cc(C(=O)NCc2ccncc2)nn1` (stereo not given) gave BJeLR viability -6, PrP 5UTR inh -11, RN4220 kill 0.7, ugtP null kill 5 and Autofluor counter 4938.
Screening COc1ccc(CNC(=O)C2CC(c3cccc([N+](=O)[O-])c3)=NO2)cc1 (stereo not given) returned BJeLR viability -1, PrP 5UTR inh -29, RN4220 kill 5.7, ugtP null kill 2, Mtb hypoxia inh 3, Autofluor counter 3397 and Mtb hypoxia inh growth 4.
`Nc1nonc1-c1noc(-c2ccccc2)n1` gave BJeLR viability -5, PrP 5UTR inh -30, RN4220 kill 4.4, ugtP null kill 3, Mtb hypoxia inh 2, Autofluor counter 20869* and Mtb hypoxia inh growth -2.
For O=C(c1cccc(Br)c1)N1CCN(C(=O)c2cccc(Br)c2)CC1 the results were BJeLR viability -1, PrP 5UTR inh -23, RN4220 kill 0.2, ugtP null kill -1 and Autofluor counter 4807.
For COc1ccc(CCC(=O)OC(C)C(=O)c2ccc(C)cc2)cc1 (stereo not given) the results were BJeLR viability 0, PrP 5UTR inh -24 and Autofluor counter 7327.
O=C1c2ccccc2C(=O)N1CCOc1ccccc1 was read as BJeLR viability -3, PrP 5UTR inh -33, RN4220 kill 0.9, ugtP null kill -9 and Autofluor counter 4295.
Cc1ccc(OCC(=O)N2CCN(Cc3ccc4c(c3)OCO4)CC2)cc1C was read as BJeLR viability 7, PrP 5UTR inh -39, RN4220 kill 6.2, ugtP null kill 9, Mtb hypoxia inh 7, Autofluor counter 4138 and Mtb hypoxia inh growth 3.
For C=CCSc1nnc(NC(=O)CSCc2c(C)noc2C)s1 the results were PrP 5UTR inh -1, RN4220 kill 4.0, ugtP null kill 2, Mtb hypoxia inh 0, Autofluor counter 3883 and Mtb hypoxia inh growth 5.
For CCCCn1cnc2c(SCc3ccc([N+](=O)[O-])cc3)nc(N)nc21 the results were PrP 5UTR inh -8, RN4220 kill 1.7, ugtP null kill -2, Mtb hypoxia inh 0, Autofluor counter 4199 and Mtb hypoxia inh growth 7.
Screening Cc1nc(Cl)c(C(=O)NC(C)(C)C)c(C)c1Cl returned BJeLR viability -3, PrP 5UTR inh -28, RN4220 kill 4.8, ugtP null kill 2, Mtb hypoxia inh 4, Autofluor counter 8099 and Mtb hypoxia inh growth 6.
Screening CCOc1ccc(Cc2noc3c2C(=O)CCC3)cc1OCC returned BJeLR viability -18, PrP 5UTR inh -14, RN4220 kill 1.5, ugtP null kill 6, Mtb hypoxia inh 12, Autofluor counter 4438 and Mtb hypoxia inh growth -4.
